Env fusion inh – inhibitors of HIV-1 Env-driven cell-cell fusion, primary screen, HeLa-JRFL effector, CEM21 target cells, luciferase; AID 651610, 2012; inhibition, % at 12.3 µM; 360,000 compounds, 1.1% hits;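 active = mean replicate inhibition score of at least 50 and every replicate individually at or above 50; inconclusive = only one of the two criteria met; inactive = mean below 50 and not all replicates reaching 50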;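 also: 0% = plate neutral controls and 100% = maraviroc near 300 nM; one replicate is shown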
eIF4H inh – human eIF4H binding inhibitors, primary screen, translation initiation inhibitor project, biochemical, uHTS, fluorescence polarization; eIF4H fluorescence polarization binding assay; inhibition, % at 35 µM; 290,000 compounds, 0.94% hits; AID 2012, 2009;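 active = 50% or more with normal probe brightness, or confirmed in later tests; inconclusive = above 50% with abnormal brightness, or retests that disagree; inactive = below 50% or failed in later tests; about a fifth of its hits are not listed in these tables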;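 also: calls also rest on retests at 20 µM and on dose response follow-up; 0% = protein and probe with vehicle and 100% = probe without protein; strong numbers were not always called active; many hits fall short of the cut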
MT1-MMP act inh – blockers of MT1-MMP proenzyme processing, primary screen, HT1080 RFP-PRO-GFP cells, GFP/RFP fluorescence; GFP/RFP ratio fluorescence, overnight; percent of plate control window, DMSO zero; GFP/RFP ratio change, % at 20 µM; 360,000 compounds, 0.061% hits; Matrix metalloproteinase-14 (Homo sapiens), P50281; AID 651647, 2012;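 active = GFP/RFP ratio change of at least 30% with cell ATP level not reduced by more than half and red fluorescence within 50% of control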; also: strong numbers were not always called active
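Read-out: GFP/RFP fluorescence ratio; Test system: RFP-PRO-GFP reporter HT1080 cells; Compound dosing: single-point 20 µM compound, 1% DMSO; Times: overnight compound exposure at 37 °C.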
Yeast UUG start – modulators of yeast start codon fidelity, primary screen, whole organism, S. cerevisiae, single point, plate reader; S. cerevisiae UUG-firefly luciferase reporter, luminescence/redox ratio; activity score, % at 18.7 µM; 350,000 compounds, 0.13% hits; AID 602363, 2012;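 active = replicate mean at a twofold rise or more, about +100% in these data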;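 also: firefly luciferase made from a UUG start codon reports start codon fidelity; reporter light over untreated wells divided by growth signal over untreated wells; some hits fall short of that in this replicate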
CSC inhib – cancer stem cell viability inhibitors, primary screen, luminescence. cancer stem cell-like cells viability. inhibition, % at 7.5 µM. 300,000 compounds, 1.1% hits;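 active = mean at 75% or more and at least half the replicates too; inconclusive = mean and replicates disagree; tested in HMLE shEcad cells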;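 also: 0% = median of negative and 100% = median of positive control wells; the first replicate is given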
PABP FP inh – PABP poly(A) RNA binding inhibitors, primary screen, biochemical, fluorescence polarization, uHTS | Polyadenylate-binding protein 1 (Homo sapiens), P11940 | inhibition, % at 35 µM | 290,000 compounds, 1% hits | AID 2014, 2009;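 active = 50% or more with normal probe brightness, or confirmed in later tests; inconclusive = above 50% with abnormal brightness, or retests that disagree; inactive = below 50% or failed in later tests; about a fifth of its hits are not listed in these tables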;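 also: calls also rest on retests at 20 µM and on dose response follow-up; controls were probe without protein and protein plus probe with vehicle; some compounds called inactive have numbers as strong as hits; many hits fall short of the cut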
Rce1 inhib – yeast Rce1p protease inhibitors, primary screen, biochemical, fluorescence, cell-free homogeneous | yeast membranes, quenched prenylated peptide cleavage fluorescence | calls only | 290,000 compounds, 0.27% hits | CAAX prenyl protease 2 (Saccharomyces cerevisiae (strain ATCC 204508 / S288c)), Q03530 | AID 2563, 2010;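 active = fall in fluorescence gain of 50% or more versus controls, with final raw signal at or below 3038400; inconclusive = same 50% fall but final raw signal above 3038400; inactive = fall in fluorescence gain under 50%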;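 also: plate controls were neutral control wells for no effect and wells lacking membranes for full effect; tested at 10 µM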
Target sequence (Q03530 whole entry, looked up): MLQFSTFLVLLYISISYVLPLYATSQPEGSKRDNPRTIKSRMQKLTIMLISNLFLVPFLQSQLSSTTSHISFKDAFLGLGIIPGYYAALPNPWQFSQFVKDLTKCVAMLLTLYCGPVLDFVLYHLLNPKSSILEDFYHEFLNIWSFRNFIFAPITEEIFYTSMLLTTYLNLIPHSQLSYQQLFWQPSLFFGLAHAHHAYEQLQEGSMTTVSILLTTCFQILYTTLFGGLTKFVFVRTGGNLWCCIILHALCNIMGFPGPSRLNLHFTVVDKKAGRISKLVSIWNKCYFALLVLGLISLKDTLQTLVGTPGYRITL
eIF4H inh retest – also measured in eIF4H inh; calls as there; inhibition, %; compound at 20 µM; confirmation average;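 mean of two retest wells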
PABP FP inh retest – further read-out of PABP FP inh, marked with its call; inhibition, %; compound at 20 µM; confirmation repeats;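 mean of two retest wells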
MT1-MMP act inh RFP – also measured in MT1-MMP act inh; calls as there; RFP signal change, %; measured here: RFP expression control read;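 0 = vehicle wells; hits needed this value within 50% of zero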
The depositor's hits bear a star; i = inactive; ? = inconclusive; / = not tested or not shown; & = joins results of further samples; [ ] = dose if it differs, or a comment.

SMILES	Env fusion inh	eIF4H inh	MT1-MMP act inh	MT1-MMP act inh RFP	Yeast UUG start	CSC inhib	PABP FP inh	Rce1 inhib	others
Cc1nc2[nH]c(=O)c3c(n2n1)NC1=C(C(=O)CC(C)(C)C1)C3c1ccccc1 (stereo unspecified)	37	-3	-3	0	-20	-7	1	i
Cc1nc(CNS(=O)(=O)c2cc(F)ccc2F)cs1	-57	-3	14	4	17	-17	0	i
CCOC(=O)CC(=O)CSc1nnc2c(n1)[nH]c1ccccc12	-138	4	3	1	/	-12	13	i
COc1cc(OC)cc(C(=O)NNc2nc3cc4c(cc3s2)OCO4)c1	-19	2	2	5	-12	/	10	i
CC(C)Cc1nnc(NC(=O)c2cc(-c3ccncc3)nc3ccccc23)s1	-10	-8	9	2	-17	2	3	i
O=C(CSCc1cnn(-c2ccccc2)c1-n1cccc1)NCC1CCCO1 (stereo unspecified)	/	3	3	1	3	/	-2	i
Cc1ccc(CC(=O)Nc2nncs2)cc1	-40	4	2	5	-25	-17	-9	i
C=CCn1c(COc2ccc(F)cc2)nnc1SC(C)C(=O)NCC1CCCO1 (stereo unspecified)	3	/	1	-1	-14	/	/	/
CC[C@H]1C(c2ccc(F)cc2)=NN(c2ccccc2)[C@@H]1CO	60*	/	0	-2	-1	/	/	/
O=C(CSc1nnc(CNC(=O)c2c(F)cccc2Cl)o1)NCc1ccc2c(c1)OCO2	/	2	-9	-3	-16	-8	-7	i
C[C@@H]1CN([C@H](C)CO)C(=O)CCCn2nncc2CO[C@H]1CN(C)Cc1ccc2c(c1)OCO2	-22	/	1	3	11&-4	/	/	/
Cc1ccc(Nc2nc3c(c(=O)[nH]c(=O)n3C)n2Cc2ccc(F)cc2)cc1	/	-3	6	0	5	/	-4	i
COc1ccc(C(=O)Nc2ccc(N3CCOCC3)cc2)cc1S(=O)(=O)NC1CCCC1	-6	3	1	-8	/	-8	32	i
C=CCN1C(=O)/C(=C2/C(=O)N(CC(=O)O)c3ccccc32)S/C1=N/c1nccs1	/	105*	/	/	/	/	68*	i	eIF4H inh retest=105*;PABP FP inh retest=101*
C/C(=N\Nc1nc2ccccc2[nH]1)c1ccc(C)o1	/	9	10	-2	/	-7	-2	i
COc1ccc(OC)c(S(=O)(=O)n2nc(C)cc2C)c1	3	4	4	2	-3	4	-2	/
CC1CCN(CC[C@H]2CCCN2S(=O)(=O)c2cccc(O)c2)CC1	19	/	-2	2	-15	2	/	/
COc1cccc(CN(C)C(=O)[C@@H](NC(=O)c2ccc(C)cc2)C(C)C)c1	-2	1	-1	-1	-3	7	-3	i
COc1ccc(OC)c(S(=O)(=O)Nc2ccc3c(c2)OCCO3)c1	-12	/	-1	0	-37	/	/	/
CNS(=O)(=O)c1ccc(NCC2COc3ccccc3O2)c([N+](=O)[O-])c1 (stereo unspecified)	29	2	3	-3	-10	4	-4	i
Cc1ccc(S(=O)(=O)N[C@@H](Cc2ccccc2)C(=O)N2CCC(C(=O)N[C@H](C(=O)O)C(C)O)CC2)cc1 (stereo partly specified)	1	-6	-5	-3	-11	-7	-13	i
C[C@@H]1CN([C@H](C)CO)C(=O)CCCn2nncc2CO[C@H]1CN(C)C(=O)c1ccncc1	-7	/	-1	3	10&1&-4	/	/	/
O=C(O)c1cn(Cc2ccccc2)c2ccccc2c1=O	6	13	3	-1	-13	-2	-10	i
O=C(Cc1ccccc1F)Nc1cc(Cl)ccc1N1CCCC1	32	-8	-3	-4	-1	14	2	i
O=C1c2[nH]nc(-c3ccccc3O)c2C(c2cccc(Cl)c2)N1CC1CCCO1 (stereo unspecified)	-50	-5	-2	-8	-4	-10	-4	i
COc1ccccc1N1CCN(Cc2cc(Br)c(O)c3ncccc23)CC1	-6	18	/	/	-20	77*	-4	i
CCc1nnc(NC(=O)CCC(=O)NCC2CCCO2)s1 (stereo unspecified)	/	3	1	2	-18	-13	1	i
O=C(NCc1ccccc1F)c1cccs1	-11	0	3	-3	-21	-15	18	i
O=C(O)CC(SCc1ccc(C(=O)O)o1)C(=O)O (stereo unspecified)	-3	-8	-3	0	-21	10	2	i
CCOc1cc(CN2CCN(c3ncccn3)CC2)ccc1OC	-1	2	4	5	-3	1	7	i

Arranged by molecular weight (lowest first): some entries from above
SMILES	Env fusion inh	eIF4H inh	MT1-MMP act inh	MT1-MMP act inh RFP	Yeast UUG start	CSC inhib	PABP FP inh	Rce1 inhib	others
CCc1nnc(NC(=O)CCC(=O)NCC2CCCO2)s1 (stereo unspecified)	/	3	1	2	-18	-13	1	i
CCOc1cc(CN2CCN(c3ncccn3)CC2)ccc1OC	-1	2	4	5	-3	1	7	i
O=C(Cc1ccccc1F)Nc1cc(Cl)ccc1N1CCCC1	32	-8	-3	-4	-1	14	2	i

New compounds follow
SMILES	Env fusion inh	eIF4H inh	MT1-MMP act inh	MT1-MMP act inh RFP	Yeast UUG start	CSC inhib	PABP FP inh	Rce1 inhib	others
COc1ccc(C(=O)Nc2ccnn2C2CCN(CC3CC=CCC3)CC2)cc1 (stereo unspecified)	21	-5	1	1	2	3	2	i
COc1ccc(C(=O)n2c(-c3ccco3)nc3ccccc32)cc1	-309	-8	6	-13	-16	54	7	i
COc1cccc(NC(=O)CSc2ccccn2)c1	-91	-2	2	2	-12	-6	-5	i
CCN(CC)C(=O)C1=C(C)N(CCCOC)C(=O)C(CC(=O)NCCCCc2ccccc2)C1 (stereo unspecified)	-4	/	2	5	-5	/	/	/
Cc1cccc(C(=O)OCC(=O)c2ccc3c(c2)OCO3)c1O	-100	-5	-1	-2	-15	-9	-13	i
CCOC(=O)C1=C(C)NC(SC(C)=O)=NC1c1ccc(OC(C)=O)c(OC)c1 (stereo unspecified)	/	9	-4	5	-9	-12	-3	i
N#Cc1ccccc1NC(=S)NC(=O)c1cccnc1	4	-4	3	-2	-14	-10	-2	i
O=C(NN1C(=O)c2ccccc2NC1c1cccnc1)c1ccccc1 (stereo unspecified)	-3	-5	-6	2	-10	-7	0	i
CCn1c(NC(=O)c2ccccc2)nc2ccccc21	-12	7	4	2	-15	7	5	i
CN(C)C(=O)Cn1c(SCC(=O)NC2CCCCC2)nc2ccccc21	/	-7	0	-2	-6	-5	-32	i
CCN1C(=O)/C(=C2/Sc3ccccc3N2CC)SC1=S	33	45	-13	-2	-23	-3	11	i
Cc1ccc(S(=O)(=O)Nc2ccc3c(c2)CC(=O)N([C@H](C)CO)C[C@@H](C)[C@H](CN(C)Cc2ccc(-c4ccccc4)cc2)O3)cc1	12[16.7 µM]	/	0	-2	16&-3	109*	/	/
O=C1NC(=S)SC1=Cc1cccs1	-21	/	3	6	-1	/	/	/
CCn1cc(C(=O)NCc2ccc3c(c2)OCO3)c(=O)c2cc(S(=O)(=O)N3CCOCC3)ccc21	-18	-10	2	-3	4	5	8	i
COC(=O)Cn1cc(C(=O)OC)cc(Br)c1=O	/	8	0	1	-4	-8	-5	i
O=C(Nc1nnc(-c2ccc(Cl)s2)o1)C1CC1	-15	-9	3	9	/	-3	2	i
COc1ccc(/C=C2\SC(=O)N(CCn3cnnn3)C2=O)cc1	?	2	/	/	/	9	-7	i
O=C(CCc1cccc(Cl)c1)N1CCCC(Nc2ccccc2)C1 (stereo unspecified)	14	-8	-1	-1	4	3	-3	i
CCCNC(=O)C1(C)CCCN(Cc2ccc(-c3ccccn3)cc2)C1 (stereo unspecified)	10	/	2	3	-13	/	/	/
O=P(O)(c1ccccc1)c1ccccc1O	/	-7	1	1	-10	-5	36	i
CCOc1cc(C2NC(=O)N(C)C(C)=C2C(=O)OC)cc(Br)c1O (stereo unspecified)	-12	-12	-14	6	-23	-7	-2	i
COc1cccc(CNC(=O)c2nnn(CC(=O)Nc3cccc(C)c3)c2N)c1	13	-8	-3	-2	-5	-5	3	i
Fc1ccc(F)c(NC(=S)NCCc2ccccc2)c1	9	7	-3	-17	-26	-1	-6	i
CC1=NN(C(=O)CSCc2ccccc2)C(O)(c2ccc(F)cc2)C1 (stereo unspecified)	15	11	7	0	-15	-15	2	i
COc1ccc(S(=O)(=O)NC2(C(F)(F)F)NC(=O)N(CCc3ccc(OC)c(OC)c3)C2=O)cc1 (stereo unspecified)	-20	-5	-3	-1	-5	/	1	i
N/C(=N\OC(=O)CCCOc1ccccc1)c1ccncc1	9	-12	7	4	/	-5	0	/
COc1ccc(-c2cnc3c(NC=O)cc(-c4cc(OC)c(OC)c(OC)c4)cn23)cc1OC	7	/	-2	-2	-11	/	/	/
CCc1c(C)sc(NC(=S)N2CCN(S(C)(=O)=O)CC2)c1C(=O)OC	-3	-3	0	-5	-29	/	-3	i
CC(C)c1ccc(C(C(=O)NC2CCCCC2)N(C(=O)c2ccccn2)c2cccnc2)cc1 (stereo unspecified)	-12	3	-2	-1	/	4	7	i
CC(C)(C)NCC(O)(c1ccc(Cl)cc1)c1ccc(Cl)cc1	/	0	5	-1	1	-10	12	i
CN1CCCC(OC(=O)c2cccc(Br)c2)C1 (stereo unspecified)	2	-9	2	4	-18	-10	-1	i
O=C(/C=C/c1cccnc1)c1cc(F)ccc1O	-7	-8	-1	0	/	0	1	i
O=C(Nc1ccccc1Sc1ccccc1)c1ccccc1F	-7	/	-2	-1	-6	-6	/	i
CCc1cc2c(=O)c(-c3nc(C)cs3)c(CCCC(=O)O)oc2cc1O	1	9	-5	-1	7	5	1	i
COc1ccc(-n2c(Cc3cccn3C)nnc2SCC(=O)Nc2nc(C)cs2)cc1	-34	-7	-1	-1	0	1	-6	i
COc1ccc(C(C)=O)cc1COC(=O)CCC(=O)c1cccs1	-1	/	1	0	-5	-3	/	/
COc1ccc2no[n+]([O-])c2c1	/	0	/	/	/	-7	-1	i
C/C(=N\NC(=O)c1cc(C)oc1C)c1ccc2ccccc2c1	9	3	-2	-5	-3	8	2	/
c1ccc(-c2nc(NCc3cccnc3)c3ccccc3n2)cc1	/	0	-3	-1	-11	8	1	i
CC1=C/C(=N\NC(=O)c2ccccc2)CC1	4	-3	11	14	/	-24	-10	i
CSCCC(NC(=O)OCc1ccccc1)NC(=O)OCc1ccccc1	12	/	6	0	7	/	/	/
Cc1ccc(C)c(S(=O)(=O)N2CCCC2CNC(=O)C(=O)NCc2cccs2)c1 (stereo unspecified)	/	/	5	-1	/	-18	/	i
Cc1cc(NC(=O)c2ccco2)c(=O)n(Cc2cccc(C(F)(F)F)c2)c1	8	-8	1	-2	-21	-2	12	i
Cc1ccc(C(=O)NNC(=O)CSc2n[nH]c(-c3cccnc3)n2)cc1	24	9	6	1	/	-3	?	i
COc1ccc(CC(=O)N2CC(=O)N(CCc3ccccc3)C(=O)C2)cc1	/	3	4	-1	2	0	3	i
CCOC(=O)c1[nH]c(C)c(C(=O)Nc2cc(OC)ccc2OC)c1C	-93	1	4	-7	-14	/	4	/
COc1ccc(NC(=O)c2ccc(Br)o2)cc1	-79	-14	4	0	-19	-1	0	i
